A1 apoptosis 2 = blocks A1, raising caspase activity | AID 2465 | caspase activation, % (test concentration not listed) | MEF A1-2A-BIM cells, caspase-Glo luminescence, 3 h; percent of clofoctol response, DMSO zero | 24,000 tested, under 10 active; in the data active = caspase activation above about 5.9%; inconclusive = no clear call, values can overlap the other calls; inactive = below about 2.2%;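 note: wells of about 30 µL received 50 nL stock; the first replicate is given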
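Material: mouse embryonic fibroblasts co-expressing A1 and BIM (A1-2A-BIM), primed for A1 dependence / Quantity: 2500 cells/well / Buffer or medium: RPMI-1640 growth medium with 10% FBS / Doses: 50 nL compound per well, pinned / Schedule: 3 h compound exposure at 37 °C / Signal: Caspase-Glo luminescence (DEVD substrate) / Measure: Caspase-3/7 activation, seen as rise in luminescence signal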
* = called active by the depositor; ? = inconclusive. These rows are one share of the data; the hit share may differ from the screen's.

SMILES | A1 apoptosis 2
COc1ccc(NC(=O)Nc2cccc3c2O[C@@H](CN(C)S(=O)(=O)c2ccc(F)cc2)[C@H](C)CN([C@@H](C)CO)C3=O)cc1 | 0.3
C[C@@H]1CN([C@H](C)CO)C(=O)Cc2cc(NC(=O)CCCCCC(=O)Nc3ccccc3N)ccc2O[C@H]1CN(C)S(=O)(=O)c1ccc(Cl)cc1 | 0.4
C[C@H]1CN([C@@H](C)CO)C(=O)Cc2cc(NC(=O)Nc3ccccc3)ccc2O[C@H]1CN(C)Cc1ccc(Cl)c(Cl)c1 | 2.4
Cc1noc(C)c1S(=O)(=O)Nc1ccc2c(c1)C(=O)N([C@@H](C)CO)C[C@H](C)[C@H](CN(C)C)OCCCC[C@@H](C)O2 | -0.1
C[C@H]1CN([C@@H](C)CO)C(=O)c2cc(NC(=O)C3CC3)ccc2O[C@H]1CN(C)Cc1ccc(C(F)(F)F)cc1 | -1.9
COc1ccc(S(=O)(=O)Nc2ccc3c(c2)C(=O)N([C@H](C)CO)C[C@@H](C)[C@@H](CN(C)Cc2ccc(Cl)c(Cl)c2)O3)cc1 | -0.4
Cc1noc(C)c1NC(=O)Nc1ccc2c(c1)CC(=O)N([C@@H](C)CO)C[C@H](C)[C@H](CN(C)Cc1ccncc1)O2 | ?
C[C@H]1CN([C@@H](C)CO)C(=O)c2cc(NC(=O)CCN3CCOCC3)ccc2O[C@@H]1CN(C)Cc1ccc(Cl)c(Cl)c1 | 0.3
CCCNC(=O)[C@@H]1c2ccccc2C(=O)N(Cc2ccccc2OC)[C@H]1c1ccc(CO)cc1 | -0.6
COc1ccc(S(=O)(=O)Nc2ccc3c(c2)CC(=O)N([C@H](C)CO)C[C@H](C)[C@@H](CN(C)Cc2ccc(C(=O)O)cc2)O3)cc1 | -0.2
CC(C)NC(=O)N(C)C[C@@H]1OCCCC[C@@H](C)Oc2ccc(NC(=O)Nc3ccc4c(c3)OCO4)cc2C(=O)N([C@@H](C)CO)C[C@H]1C | -0.7
C[C@H](CO)N1C[C@H](C)[C@H](CN(C)C(=O)CCCN(C)C)OCc2cn(nn2)CCCC1=O | -0.2
CC(C)(C)OC(=O)CC[C@@]12N=C(c3ccc(OCCCO)cc3)O[C@@H]1c1ccccc1N(CCS(=O)(=O)c1ccccc1)C2=O | -2.2
C[C@@H]1CCCCO[C@@H](CN(C)Cc2ccccc2)[C@@H](C)CN([C@H](C)CO)C(=O)c2cc(N(C)C)ccc2O1 | 0.5
C[C@@H]1CCCCO[C@@H](CN(C)C(=O)c2ccccc2)[C@@H](C)CN([C@H](C)CO)C(=O)c2cc(NC(=O)CCCCCC(=O)Nc3ccccc3N)ccc2O1 | 3.0
COc1ccc(NC(=O)Nc2ccc3c(c2)CC(=O)N([C@H](C)CO)C[C@@H](C)[C@H](CN(C)C(=O)Nc2ccc(OC)cc2)O3)cc1 | -1.0
COc1ccc(NC(=O)N(C)C[C@H]2Oc3ccc(NC(=O)c4ccncc4)cc3CC(=O)N([C@@H](C)CO)C[C@H]2C)cc1 | -0.8
C[C@@H]1CN([C@H](C)CO)C(=O)c2cc(NC(=O)c3ccncc3)ccc2O[C@@H](C)CCCCO[C@@H]1CN(C)C(=O)Cc1ccccc1 | -0.7
C[C@H]1CN([C@@H](C)CO)C(=O)Cc2cc(NS(=O)(=O)c3ccc(F)cc3)ccc2O[C@H]1CN(C)C(=O)Nc1ccc(F)cc1 | -1.2
COc1ccc(CN(C)C[C@H]2Oc3c(NS(=O)(=O)c4ccccc4)cccc3C(=O)N([C@H](C)CO)C[C@@H]2C)cc1 | -1.0
NC(=O)[C@@H]1[C@H]2C(=O)O[C@H](c3ccccc3)[C@H](c3ccccc3)N2[C@H](c2ccc(OCCO)cc2)[C@@]12C(=O)Nc1ccc(C#CC3(O)CCCCCC3)cc12 | -1.7
Cc1noc(C)c1NC(=O)Nc1cccc2c1O[C@H](CN(C)Cc1ccc(Cl)c(Cl)c1)[C@H](C)CN([C@H](C)CO)C2=O | 0.2
Cc1noc(C)c1S(=O)(=O)Nc1ccc2c(c1)CC(=O)N([C@@H](C)CO)C[C@@H](C)[C@H](CN(C)C)O2 | -0.9
CNC[C@H]1OCCCC[C@@H](C)Oc2ccc(NC(=O)C3CCCCC3)cc2C(=O)N([C@H](C)CO)C[C@@H]1C | 0.8
C[C@@H]1CN([C@H](C)CO)C(=O)c2cccc(NC(=O)c3ccc(-c4nccs4)cc3)c2O[C@H]1CN(C)C(=O)Nc1ccc(F)cc1 | 0.7
C[C@@H]1CN([C@H](C)CO)C(=O)c2cc(NC(=O)Nc3ccc(F)cc3)ccc2O[C@@H](C)CCCCO[C@H]1CN(C)C(=O)Nc1ccc(F)cc1 | 2.2
C[C@@H]1CN([C@H](C)CO)C(=O)c2cccc(NS(=O)(=O)c3cccs3)c2O[C@H]1CN(C)C(=O)Nc1ccc(C(F)(F)F)cc1 | -1.2
C[C@@H]1CCCCO[C@@H](CN(C)Cc2ccc(Cl)c(Cl)c2)[C@@H](C)CN([C@H](C)CO)C(=O)c2cc(NC(=O)NC3CCCCC3)ccc2O1 | 1.1
CC(C)NC(=O)Nc1ccc2c(c1)C(=O)N([C@H](C)CO)C[C@H](C)[C@@H](CN(C)C(=O)c1ccccc1)OCCCC[C@H](C)O2 | 0.2
CC(C)NC(=O)Nc1ccc2c(c1)C(=O)N([C@@H](C)CO)C[C@@H](C)[C@H](CN(C)C(=O)Nc1ccc3c(c1)OCO3)OCCCC[C@@H](C)O2 | -0.7
C[C@H]1CCCCO[C@H](CN(C)CC2CC2)[C@@H](C)CN([C@@H](C)CO)C(=O)c2cc(NC(=O)CCC(F)(F)F)ccc2O1 | -0.2
C[C@@H]1CN([C@H](C)CO)C(=O)c2cc(NC(=O)NC3CCCCC3)ccc2O[C@@H](C)CCCCO[C@@H]1CN(C)C(=O)c1ccncc1 | -0.6
C[C@@H]1CCCCO[C@@H](CN(C)C(=O)C2CCCCC2)[C@@H](C)CN([C@H](C)CO)C(=O)c2cc(NC(=O)CCC(F)(F)F)ccc2O1 | 0.3
C[C@@H]1CN([C@@H](C)CO)C(=O)c2cc(NC(=O)c3ccncc3)ccc2O[C@@H](C)CCCCO[C@H]1CN(C)C(=O)NC1CCCCC1 | 0.8
Cc1noc(C)c1NC(=O)N(C)C[C@@H]1Oc2ccc(NC(=O)Nc3cccc4ccccc34)cc2CC(=O)N([C@H](C)CO)C[C@H]1C | 0.6
C[C@@H]1CCCCO[C@H](CN(C)S(=O)(=O)c2ccccc2)[C@H](C)CN([C@@H](C)CO)C(=O)c2cc(NS(=O)(=O)c3ccc(Cl)cc3)ccc2O1 | -0.3
COc1ccc(NC(=O)Nc2ccc3c(c2)C(=O)N([C@@H](C)CO)C[C@H](C)[C@H](CN(C)S(C)(=O)=O)O3)cc1 | -0.2
C[C@@H]1CCCCO[C@@H](CN(C)C(=O)Nc2cccc3ccccc23)[C@H](C)CN([C@H](C)CO)C(=O)c2cc(NC(=O)CCC(F)(F)F)ccc2O1 | -1.5
COc1ccc(S(=O)(=O)Nc2ccc3c(c2)C(=O)N([C@H](C)CO)C[C@@H](C)[C@@H](CN(C)S(=O)(=O)c2ccc(Cl)cc2)OCCCC[C@H](C)O3)cc1 | 0.5
C[C@@H]1CN([C@@H](C)CO)C(=O)c2cccc(NC(=O)C3CCOCC3)c2O[C@@H]1CN(C)C(=O)NC1CCCCC1 | -0.2
C[C@@H]1CCCCO[C@@H](CN(C)CC2CCCCC2)[C@@H](C)CN([C@@H](C)CO)C(=O)c2cc(NC(=O)CCC(F)(F)F)ccc2O1 | -0.3
O=C(CCCCCCC(=O)N/N=C/c1ccoc1)NO | 1.5
Cc1ccc(S(=O)(=O)Nc2cccc3c2O[C@H](CN(C)C(=O)Nc2cccc4ccccc24)[C@@H](C)CN([C@@H](C)CO)C3=O)cc1 | 1.0
C[C@@H]1CN([C@H](C)CO)C(=O)c2cccc(NC(=O)Nc3ccc(C(F)(F)F)cc3)c2O[C@@H]1CN(C)C(=O)Nc1ccc(F)cc1 | 1.4
Cc1ccc(S(=O)(=O)N(C)C[C@@H]2Oc3ccc(NC(=O)NC4CCCCC4)cc3C(=O)N([C@@H](C)CO)C[C@H]2C)cc1 | -0.8
C[C@@H]1CN([C@@H](C)CO)C(=O)c2cc(NC(=O)CCCCCC(=O)Nc3ccccc3N)ccc2O[C@@H]1CN(C)C(=O)NC1CCCCC1 | 0.8
Cc1noc(C)c1S(=O)(=O)N(C)C[C@H]1OCCCC[C@H](C)Oc2ccc(NC(=O)c3ccccc3)cc2C(=O)N([C@@H](C)CO)C[C@H]1C | -1.0
Cc1noc(C)c1NC(=O)N(C)C[C@@H]1OCCCC[C@@H](C)Oc2ccc(NS(C)(=O)=O)cc2C(=O)N([C@@H](C)CO)C[C@H]1C | 0.2
C[C@@H]1CCCCO[C@@H](CN(C)Cc2ccc(Cl)c(Cl)c2)[C@@H](C)CN([C@H](C)CO)C(=O)c2cc(NS(=O)(=O)c3cn(C)cn3)ccc2O1 | 0.5
C[C@H](CO)N1C[C@H](C)[C@H](CN(C)C(=O)Nc2ccc3c(c2)OCO3)Oc2ccc(NS(=O)(=O)c3cccs3)cc2CC1=O | -0.2
C[C@@H]1CN([C@H](C)CO)C(=O)c2cc(NC(=O)C3CC3)ccc2O[C@@H]1CN(C)S(=O)(=O)c1cn(C)cn1 | -0.7
C[C@H](CO)N1C[C@H](C)[C@H](CN(C)S(=O)(=O)c2ccc(F)cc2)Oc2ccc(NC(=O)c3ccncc3)cc2C1=O | -0.2
CCO[C@H]1OC(C(=O)NC2CC2)=C[C@@H](C2CC2)[C@@H]1CCCO | 0.4
C[C@@H]1CN([C@@H](C)CO)C(=O)c2cc(NC(=O)NC3CCCCC3)ccc2O[C@H]1CN(C)S(=O)(=O)c1cccs1 | 0.3
Cc1noc(C)c1S(=O)(=O)Nc1ccc2c(c1)CC(=O)N([C@H](C)CO)C[C@@H](C)[C@@H](CN(C)S(=O)(=O)c1ccc(F)cc1)O2 | 1.4
C[C@@H]1CCCCO[C@@H](CN(C)C(=O)c2ccncc2)[C@H](C)CN([C@@H](C)CO)C(=O)c2cc(NC(=O)Cc3ccccc3)ccc2O1 | 1.6
COc1cc(Br)cc(/C=N/NC(=O)c2ccccn2)c1O | -8.9
C[C@@H]1CN([C@@H](C)CO)C(=O)Cc2cc(NC(=O)CCC(F)(F)F)ccc2O[C@H]1CN(C)Cc1ccc(Oc2ccccc2)cc1 | 0.2
Cc1ccc(S(=O)(=O)N(C)C[C@@H]2OCCCC[C@H](C)Oc3ccc(NC(=O)CCCN(C)C)cc3C(=O)N([C@@H](C)CO)C[C@H]2C)cc1 | -1.0
COc1ccc(-c2cnc3c(c2)C(=O)N([C@H](C)CO)C[C@H](C)[C@H](CN(C)C(=O)NC2CCCC2)O3)cc1 | -0.4

7 neighbouring compounds from above, quoted:
SMILES | A1 apoptosis 2
C[C@@H]1CN([C@H](C)CO)C(=O)c2cc(NC(=O)C3CC3)ccc2O[C@@H]1CN(C)S(=O)(=O)c1cn(C)cn1 | -0.7
C[C@H](CO)N1C[C@H](C)[C@H](CN(C)S(=O)(=O)c2ccc(F)cc2)Oc2ccc(NC(=O)c3ccncc3)cc2C1=O | -0.2
CCO[C@H]1OC(C(=O)NC2CC2)=C[C@@H](C2CC2)[C@@H]1CCCO | 0.4
C[C@@H]1CN([C@@H](C)CO)C(=O)c2cc(NC(=O)NC3CCCCC3)ccc2O[C@H]1CN(C)S(=O)(=O)c1cccs1 | 0.3
Cc1noc(C)c1S(=O)(=O)Nc1ccc2c(c1)CC(=O)N([C@H](C)CO)C[C@@H](C)[C@@H](CN(C)S(=O)(=O)c1ccc(F)cc1)O2 | 1.4
C[C@@H]1CCCCO[C@@H](CN(C)C(=O)c2ccncc2)[C@H](C)CN([C@@H](C)CO)C(=O)c2cc(NC(=O)Cc3ccccc3)ccc2O1 | 1.6
COc1cc(Br)cc(/C=N/NC(=O)c2ccccn2)c1O | -8.9

(next part)
SMILES | A1 apoptosis 2
Cc1noc(C)c1NC(=O)N(C)C[C@H]1OCCCC[C@@H](C)Oc2ccc(NS(C)(=O)=O)cc2C(=O)N([C@H](C)CO)C[C@H]1C | -0.9
C=CC[C@@]12N=C(c3ccc(OCCCO)cc3)O[C@@H]1c1ccccc1CN(Cc1ccccc1)C2=O | -0.1
C[C@@H]1CN([C@@H](C)CO)C(=O)Cc2cc(NC(=O)Cc3ccccc3)ccc2O[C@@H]1CN(C)Cc1ccc(C(=O)O)cc1 | 0.5
C[C@H](CO)N1C[C@H](C)[C@H](CN(C)Cc2ccc3c(c2)OCO3)Oc2ccc(NC(=O)CCCCCC(=O)Nc3ccccc3N)cc2C1=O | -0.8
C[C@H]1CN([C@@H](C)CO)C(=O)Cc2cc(NS(=O)(=O)c3cccs3)ccc2O[C@@H]1CN(C)CC1CC1 | -2.0
C[C@@H]1CCCCO[C@H](CN(C)C(=O)Nc2ccccc2)[C@H](C)CN([C@H](C)CO)C(=O)c2cc(NC(=O)CCC(F)(F)F)ccc2O1 | -0.1
COc1ccc(NC(=O)N(C)C[C@@H]2Oc3ccc(NS(C)(=O)=O)cc3C(=O)N([C@@H](C)CO)C[C@H]2C)cc1 | 0.1
C[C@H](CO)N1C[C@H](C)[C@H](CN(C)Cc2ccc(C(F)(F)F)cc2)Oc2ccc(NC(=O)Cc3cn(C)c4ccccc34)cc2CC1=O | -0.8
C[C@@H]1CN([C@H](C)CO)C(=O)CCCn2nncc2CO[C@@H]1CN(C)Cc1ccc(O)cc1 | 0.5

Single values from the list:
A1 apoptosis 2 result of `C[C@H](CO)N1C[C@H](C)[C@H](CN(C)Cc2ccc(C(F)(F)F)cc2)Oc2ccc(NC(=O)Cc3cn(C)c4ccccc34)cc2CC1=O` stands at -0.8
A1 apoptosis 2 result of `C[C@@H]1CCCCO[C@@H](CN(C)C(=O)C2CCCCC2)[C@@H](C)CN([C@H](C)CO)C(=O)c2cc(NC(=O)CCC(F)(F)F)ccc2O1` stands at 0.3

Bioassay records from PubChem.
